Compound activity as filed in PubChem.
Tg IFNy HTS – inhibitors of Toxoplasma gondii growth with IFN-gamma | Toxoplasma gondii growth in IFN-gamma-treated host cells; active compounds read low; reference of the scale not given here | activity change, negative = inhibition, %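 (about 20 µM by stock and volumes)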 | 3.8% of 69,000 active;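 active = below -70%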;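 note: host cells are HeLa cells infected with Toxoplasma gondii; parasite growth read as luciferase light; one replicate is shown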
* hit, by the source's call; i = inactive; & = joins results of further samples. Not all compounds are listed; count on the stated rates, not on these rows.

compound,Tg IFNy HTS
O=C(C[C@H]1CC[C@@H]2NC[C@H](O)COC[C@H]2O1)N1CCc2ccccc2C1,-14
CCN(CCOc1ccccc1C)C(=O)c1ccc2c(c1)OCCO2,140
COc1ccc(-c2nc(NCCC3=CCCCC3)c3ccccc3n2)cc1,-66
Cc1ccccc1OC1CCN(Cc2nc(-c3sccc3C)oc2C)CC1,5
CCN1C(=O)N(C)C(=O)C12CCN(Cc1cc3oc(C)c(-c4ccccc4)c3cc1OC)CC2,0
COc1cc2cc(C(=O)O)[nH]c2c(OC)c1OC,1
c1cnc(NC2CCN(c3ncnc4c3CCNC4)CC2)nc1,-35
Cc1cnc(N2C[C@@H]3CN(Cc4cccc(C)n4)C(=O)[C@@H]3C2)nc1,8

Among those listed so far, these contain four or more nitrogen atoms:
compound,Tg IFNy HTS
c1cnc(NC2CCN(c3ncnc4c3CCNC4)CC2)nc1,-35
Cc1cnc(N2C[C@@H]3CN(Cc4cccc(C)n4)C(=O)[C@@H]3C2)nc1,8

Continued:
compound,Tg IFNy HTS
O=C(C1CN(S(=O)(=O)c2cccnc2)CC12CCCCC2)N1CCc2ccccc2C1 (stereo unspecified),-46
CC(C)N(Cc1nccn1C)C(=O)C1CCOC1 (stereo unspecified),-4
Cn1nccc1CN1CCC2(CC(NS(C)(=O)=O)C2)C1 (stereo unspecified),5
COc1ccc(-c2nc(CCNC(=O)c3cccs3)cs2)cc1,i
O=C(c1n[nH]c2c1CCCC2)N1CCCC(c2[nH]ncc2Cc2ccccc2)C1 (stereo unspecified),1
Nc1nonc1C(=O)NCCNS(=O)(=O)c1ccc(Cl)c(Cl)c1,52
COc1cc(CN2CCCC(CCc3ccc(F)cc3)C2)ccc1O (stereo unspecified),-49
CS(=O)(=O)N1CC[C@@H]2[C@H]1CCN2C(=O)Cc1ccsc1,2

Single values from the entries so far.
Under Tg IFNy HTS, CS(=O)(=O)N1CC[C@@H]2[C@H]1CCN2C(=O)Cc1ccsc1 reads 2
Under Tg IFNy HTS, Nc1nonc1C(=O)NCCNS(=O)(=O)c1ccc(Cl)c(Cl)c1 reads 52
Under Tg IFNy HTS, O=C(C1CN(S(=O)(=O)c2cccnc2)CC12CCCCC2)N1CCc2ccccc2C1 (stereo unspecified) reads -46

Additional structures follow:
compound,Tg IFNy HTS
COc1ccc2oc(C(=O)N3CCC(Oc4ccc(F)cc4)CC3)cc2c1,0
Nc1ccc(NC(=O)c2ccccn2)cc1,244
CN(C)CCc1c[nH]c2ccc(Cn3cncn3)cc12,5&1
Cc1csc(CN2CCOc3c(O)cc(-c4ccc(C)s4)cc3C2)n1,-6
Cc1cccc(C(=O)N2CCC(c3ccccc3C(=O)O)C2)c1C (stereo unspecified),2
CC(C)CN1CC(C(=O)N2Cc3cnn(CCO)c3C2)CC1=O (stereo unspecified),13
CCC(C)NC(=O)c1c(O)c2cccnc2n(-c2ccc(OC)cc2)c1=O (stereo unspecified),39
Cc1cn(CCNc2nc(-c3ccccc3)nc3c2CCNC3)nn1,-12

(listing goes on)
compound,Tg IFNy HTS
O=C(CCn1cccn1)N1CCOC(c2ccc(Cl)c(Cl)c2)C1 (stereo unspecified),-5
Cc1ccc(Cl)c(OCCCN(C)Cc2ccccc2)c1,-59
COCC1c2c(cnn2CC2CC2)CCN1Cc1nccs1 (stereo unspecified),8
COc1cc(OC)c(C(C)=O)c(O)c1C,18
CO[C@@H]1CN(C)C(=O)c2ccc(NC(=O)Nc3ccccc3)cc2OC[C@@H](C)N(C(=O)CC2CC2)C[C@H]1C,43
O=S(=O)(NCCc1csc(-c2cnccn2)n1)NCc1ccccc1,16
Cc1noc(C)c1S(=O)(=O)N1CCC(Cc2nncn2C)CC1,69
CN(C)CCNC(=O)[C@H]1CC2CN(Cc3nccs3)CC2N1C (stereo partly specified),7

Structures from the list above containing a carbonyl joined to an NH by a bond outside any ring, in the order listed:
compound,Tg IFNy HTS
COc1ccc(-c2nc(CCNC(=O)c3cccs3)cs2)cc1,i
Nc1nonc1C(=O)NCCNS(=O)(=O)c1ccc(Cl)c(Cl)c1,52
Nc1ccc(NC(=O)c2ccccn2)cc1,244
CCC(C)NC(=O)c1c(O)c2cccnc2n(-c2ccc(OC)cc2)c1=O (stereo unspecified),39
CO[C@@H]1CN(C)C(=O)c2ccc(NC(=O)Nc3ccccc3)cc2OC[C@@H](C)N(C(=O)CC2CC2)C[C@H]1C,43
CN(C)CCNC(=O)[C@H]1CC2CN(Cc3nccs3)CC2N1C (stereo partly specified),7

(further entries)
compound,Tg IFNy HTS
O=C(Cc1c[nH]c2ccccc12)N1CCN(C(=O)c2cc(-c3cccnc3)n[nH]2)CC1,90
CCOC(=O)c1nc(Nc2cc(Cl)c(OC)cc2OC)c2ccccc2n1,-12
C[C@@H](O)C#Cc1ccc([C@@H]2[C@H]3CN(CC4CC4)CCCCN3[C@H]2CO)cc1,-10
COCCN1Cc2ccccc2C2(CCN(C(=O)c3ccno3)CC2)C1,-3
CCCCc1ccc(S(=O)(=O)NC2CCS(=O)(=O)C2)cc1 (stereo unspecified),-31
CNc1nc(C2CCN(C(=O)c3c(C(C)C)noc3C)CC2)nc2c1CN(C(C)=O)CC2,15
CN(C)C(=O)CO[C@H]1CN(Cc2cccc(C#N)c2)[C@H]2COC[C@@H]12,-5
CC(C)(C)OC(=O)N1CCCC1c1cc(N)on1 (stereo unspecified),-1

Other results.
compound,Tg IFNy HTS
CCNc1ncc(CN(C)Cc2cccc3ncccc23)cn1,-30
CCC(=O)N1[C@H](CO)[C@H](c2ccccc2)[C@@H]1CN(CC)C(=O)c1cccc(F)c1,4
CNC(=O)CC(C)N(C)Cc1[nH]c2ccc(F)cc2c1C (stereo unspecified),7
COCCN1CC2(CCN(C(=O)c3csnn3)CC2)c2ccccc21,100
c1ccc(COC2CCCN(Cc3cc4ccccc4o3)C2)nc1 (stereo unspecified),-4
O=C(C[C@@H]1C=C[C@H](NC(=O)c2ccncc2)[C@H](CO)O1)NCC1CC1,25
Cc1ccc(-c2nc(Cn3nnc(-c4nc(-c5ccc6c(c5)OCO6)no4)c3C)c(C)o2)cc1,-28
CCCn1ccnc1CN1CCCC(c2nn(C)c(=O)n2CC)C1 (stereo unspecified),4

The listing continues:
compound	Tg IFNy HTS
COC(=O)c1cc(C2CC2)nc2c1c(=O)n(Cc1nc(-c3cccc(Cl)c3)oc1C)c(=O)n2C	-12
CN(C)CC(=O)N1CCc2onc(Cn3ccnc3)c2C1	48
C[C@H](CO)N1C[C@H](C)[C@@H](CN(C)S(=O)(=O)c2ccccc2)OCCCC[C@H](C)Oc2ccc(NC(=O)Nc3ccc4c(c3)OCO4)cc2C1=O	57
O=C(C[C@H]1C=C[C@@H](NC(=O)c2cnccn2)[C@H](CO)O1)NCc1ccccc1F	-41
COC(=O)c1cc(S(N)(=O)=O)c(C)o1	6
CN(C)C(=O)C[C@@H]1CC[C@@H]2[C@H](COC[C@H](O)CN2C(=O)C2CCOCC2)O1	-48
O=C(NC1CC1)N1C[C@@H]2CN(Cc3cccc(F)c3)C(=O)[C@@H]2C1	-1
C/C=C/c1ccccc1[C@H]1[C@@H](C#N)N(C(=O)CN2CCOCC2)[C@@H]1CO	-10
C[C@H]1CN([C@@H](C)CO)C(=O)c2cc(NC(=O)Cn3cnnn3)ccc2O[C@H]1CN(C)C(=O)Nc1ccc2c(c1)OCO2	4
CO[C@@H](CN(C)S(=O)(=O)c1ccc(C)cc1)[C@@H](C)CN([C@H](C)CO)S(=O)(=O)c1cccc(Cl)c1	-25
CN1C(=O)c2cc(NS(=O)(=O)c3cccc(F)c3)ccc2OC[C@@H]2O[C@H](CC(=O)NCCN3CCCCC3)CC[C@@H]21	-18
C[C@H]1CN([C@@H](C)CO)C(=O)CCCn2nncc2CO[C@@H]1CN(C)S(=O)(=O)c1ccccc1C#N	-39
CCCn1ncnc1C(C)NC(=O)C1(Nc2ccc(C)cc2)CCCC1 (stereo unspecified)	5
O=C1CCc2cc(NS(=O)(=O)c3ccc(C(F)(F)F)cc3)ccc2N1	-37
COc1ccc(COCC(O)CS(=O)(=O)c2ccc(OC)c(OC)c2)cc1 (stereo unspecified)	2
CCN(CC)C(=O)[C@@H]1C[C@H](N)CN1S(=O)(=O)Cc1cccc(C)c1	0
Cc1ccc(NC(=O)Cn2ncc3c(N4CCC(C)CC4)ncnc32)cc1	16
CN1CCN(C[C@H]2OC[C@H]3CCN(C(=O)c4ccco4)C[C@H]32)CC1	-29
Cc1oc(-c2ccccc2Cl)nc1CSc1nc2c(=O)[nH]cnc2n1CC1CCCO1 (stereo unspecified)	0
Cc1cc2cc(CNc3ncnc4c3nnn4C)ccc2[nH]1	-2
O=C(Cc1cccs1)NC1CCc2[nH]c(=O)ccc2C1 (stereo unspecified)	-1
COc1ccc(N2CCN(C(=O)c3cc4cccnc4n(Cc4ccccc4F)c3=O)CC2)cc1	12
CCn1c(C2CCCN(C(=O)CCn3cc(Cl)cn3)C2)nn(C)c1=O (stereo unspecified)	11
COc1cccc(NC(=O)C[C@@H]2CC[C@@H]3[C@H](COc4ccc(NC(=O)C5CC5)cc4C(=O)N3C)O2)c1	27
Cc1nc(-c2cccc(F)c2)sc1CCNC(=O)C(=O)Nc1ccc(F)cc1F	14
Cc1ccc(NC(=O)c2ncn3c(C4CCN(CC5CC5)CC4)ccnc23)c(C)c1	36
O=C(N[C@H]1C=C[C@H](CC(=O)N2CCC(Cc3ccccc3)CC2)O[C@H]1CO)c1cnccn1	-13
CCCn1ncc(C(=O)NCc2cn3nc(C)sc3n2)c1C	-8
COc1ccc(C)cc1NC(=O)c1c(O)c2ccccc2[nH]c1=O	112
c1ccc(CCc2nc(CCn3nnc4ccccc43)n[nH]2)cc1	10

(next part)
compound	Tg IFNy HTS
CC(C)c1cncnc1-c1cccc(C(=O)O)c1	-50
O=C(O)CCCc1ccccc1	12&-31&12
CC(C)CCNC(=O)c1cnc(-c2noc3cc(NCC4CC4)ccc23)s1	-48
Fc1cc(CNC2(c3ccc(Cl)cc3)CCC2)ccc1N1CCOCC1	-31
COCCC1COC2(CCN(c3ccc(C#N)cc3)CC2)C1 (stereo unspecified)	-48
O=C(c1cscn1)N1CCN(CC2CC2)c2ncccc2C1	0
C=CCN(Cc1ccccc1Cl)C(=O)c1cnn(CC)c1	-3
CC(C)NC(=O)Nc1ccc2snnc2c1	6
Cc1occc1C(=O)N1CCC(N(C)Cc2cccnc2)CC1C(=O)O (stereo unspecified)	-4
COCC1CCCN(C(=O)c2ccc(-c3ccncc3)nc2)C1 (stereo unspecified)	1
CC(C)N1CCNC(=O)C1CC(=O)NCc1cc2ccc(F)cc2[nH]c1=O (stereo unspecified)	-3
Cc1nc(N)ncc1Sc1ccccc1	4
COc1ccccc1CCn1cnc(-c2ccccc2)c1C1CCOCC1	-52
CN1CCCn2nc(C(=O)N3CCN(CC4CCCO4)CC3)cc2C1 (stereo unspecified)	-3
CCCc1cc(C(=O)N(Cc2ccncc2)Cc2ccc3c(c2)OCO3)n[nH]1	6
COc1ccccc1C1(NC(=O)CCc2cc(Cl)no2)CCCC1	33
Cc1noc(-c2cc(=O)n(CC(=O)Nc3ccccc3)c3ccccc23)n1	-44
Cc1nn(C)cc1NC(=O)C[C@H]1CC[C@H]2[C@H](COc3ccc(NC(=O)C4CCOCC4)cc3C(=O)N2C)O1	15
O=C(CCC1N=C2c3ccccc3N=C(SCc3ccccc3Cl)N2C1=O)NCc1ccco1 (stereo unspecified)	9
O=C(CCN1CCN(c2nc3ccccc3o2)CC1)Nc1ccccc1F	-2
CS(=O)(=O)N1C[C@@H]2OCCN(c3cnccn3)[C@H]2C1	15
c1ccc2c(-c3noc4c3CN(CC3CCCO3)CC4)cccc2c1 (stereo unspecified)	-4
CCNC[C@@H]1[C@H](c2ccccc2)[C@H](CO)N1C(=O)Cc1ccccn1	-51
Cc1cccc(C)c1NC(=O)CC12CCCN1CCC2	8
CC(NC(=O)CCn1nnc2ccccc21)C(=O)N(C)C (stereo unspecified)	-8
Cc1cc2oc(=O)cc(C)c2cc1NC(=O)CCN1CCCCCC1=O	82
CN(C)CCC=C1c2ccccc2C=Cc2ccccc21	-26&-12
O=C(Cn1c(-c2ccsc2)c(-c2ccsc2)nnc1=O)OC1CCCCC1	240
Cc1nn(CC(=O)N2CCN(c3ccccn3)CC2)c(=O)c2nc(-c3ccccc3)sc12	0
O=C(O)c1cccc(CSc2ncn[nH]2)c1	1

Of the compounds above, 4 have a cyano group:
compound	Tg IFNy HTS
CN(C)C(=O)CO[C@H]1CN(Cc2cccc(C#N)c2)[C@H]2COC[C@@H]12	-5
C/C=C/c1ccccc1[C@H]1[C@@H](C#N)N(C(=O)CN2CCOCC2)[C@@H]1CO	-10
C[C@H]1CN([C@@H](C)CO)C(=O)CCCn2nncc2CO[C@@H]1CN(C)S(=O)(=O)c1ccccc1C#N	-39
COCCC1COC2(CCN(c3ccc(C#N)cc3)CC2)C1 (stereo unspecified)	-48

(cont.)
compound	Tg IFNy HTS
CS(=O)(=O)N1C[C@@H]2[C@H](C1)OC[C@@H]2C(=O)Nc1cccnc1	4
O=C(C[C@H]1C=C[C@@H](NC(=O)C2CCC2)[C@@H](CO)O1)NC1CCCCC1	-31
O=C(Cn1ncc2c(N3CCN(c4ccccc4)CC3)ncnc21)Nc1cccc(F)c1	-85*
Cn1nc(CNc2ncccn2)c2c1CNCC2	2
O=C(NCC1(O)CCCNCC1)c1ccc(=O)[nH]c1 (stereo unspecified)	5
COCC(=O)Nc1ccc2c(c1)C(=O)N(C)C[C@@H](OC)[C@H](C)CN(CCc1ccccc1)[C@@H](C)CO2	397
COc1cccc(-n2cc(CN(C)Cc3cccnc3)cn2)c1	31
CC(C)N1C2CCN(Cc3ccoc3)CC2C[C@H]1CN1CCCC1 (stereo partly specified)	148
CCn1c(-c2ccc(F)cc2)cnc1SCC(=O)NCCc1c[nH]c2ccccc12	202
CCn1nc(C)c(NS(=O)(=O)c2ccc(F)c(Cl)c2)c1C(=O)OC	-45
CC(C)c1noc(-c2cc(=O)n(CC(=O)NCc3ccc(F)cc3)c3ccccc23)n1	56
Cn1cc(C(CNC(=O)Nc2ccccc2)c2cccnc2)c2ccccc21 (stereo unspecified)	i
CCc1ncc(C(=O)N2CCC3(CC2)N=C(c2cccc(C)c2)NC3=O)cn1	-56
Cc1cccc(S(=O)(=O)N2C[C@H]3[C@@H](c4ccccc42)[C@@H](CO)N3CC2CCCC2)c1	-8
O=C(Cn1ncc2c(N3CCCCC3)ncnc21)Nc1ccc(Cl)cc1	-32
CC1(C(=O)NCc2ccc(F)cc2F)CCN(C(=O)CCc2ccccc2)CC1	-18
